Screens as filed in PubChem BioAssay.
eIF4H FP inh: inhibitors of RNA binding by human eIF4H; Q15056; eIF4H fluorescence polarization binding assay; inhibition, % at 35 µM; actives 0.94% (n = 290,000);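 active = 50% or more with normal probe brightness, or confirmed in later tests; about a fifth of its hits are not listed in these tables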;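 note: calls also rest on retests at 20 µM and on dose response follow-up; 0% = protein and probe with vehicle and 100% = probe without protein; strong numbers were not always called active; many hits fall short of the cut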
UUG fidelity: modulators of start codon recognition fidelity in yeast | S. cerevisiae UUG-firefly luciferase reporter, luminescence/redox ratio | actives 0.13% (n = 350,000) | activity score, % at 18.7 µM | AID 602363;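 active = replicate mean at a twofold rise or more, about +100% in these data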;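 note: firefly luciferase made from a UUG start codon reports start codon fidelity; reporter light over untreated wells divided by growth signal over untreated wells; some hits fall short of that in this replicate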
MT1-MMP act inh: inhibitors of human MT1-MMP activation. P50281. actives 0.061% (n = 360,000). GFP/RFP ratio change, % at 20 µM. HT1080 RFP-PRO-GFP cells, GFP/RFP ratio fluorescence, overnight; percent of plate control window, DMSO zero;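 active = GFP/RFP ratio change of at least 30% with cell ATP level not reduced by more than half and red fluorescence within 50% of control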; note: strong numbers were not always called active
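Assay system: HT1080 RFP-PRO-GFP cells | Dosing: 20 µM single dose, 1% DMSO | Incubation: Cells overnight before dosing, compound overnight, 37 °C, 5% CO2 | Evaluation: GFP/RFP fluorescence ratio | Control set: DMSO-only wells and HT1080 RFP-L50D-GFP cell wells as references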
PABP polyA inh: PABP-poly(A) binding inhibition | P11940 | PABP-poly(A) RNA binding, fluorescence polarization | inhibition, % at 35 µM | actives 1% (n = 290,000) | AID 2014;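 active = 50% or more with normal probe brightness, or confirmed in later tests; about a fifth of its hits are not listed in these tables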;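 note: calls also rest on retests at 20 µM and on dose response follow-up; controls were probe without protein and protein plus probe with vehicle; some compounds called inactive have numbers as strong as hits; many hits fall short of the cut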
HIV Env fusion: inhibitors of HIV Env-mediated cell fusion; HeLa-JRFL Env/CEM21 cell fusion, luciferase; inhibition, % at 12.3 µM; actives 1.1% (n = 360,000);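 active = mean replicate inhibition score of at least 50 and every replicate individually at or above 50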;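 note: 0% = plate neutral controls and 100% = maraviroc near 300 nM; one replicate is shown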
CSC inhib: cancer stem cell inhibition; cancer stem cell-like cells viability, luminescence; inhibition, % at 7.5 µM; actives 1.1% (n = 300,000);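 active = mean at 75% or more and at least half the replicates too; tested in HMLE shEcad cells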;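 note: 0% = median of negative and 100% = median of positive control wells; the first replicate is given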
Rce1 inhib: blocks yeast Ras-converting enzyme. Q03530. yeast membranes, quenched prenylated peptide cleavage fluorescence. calls only. actives 0.27% (n = 290,000);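 active = fall in fluorescence gain of 50% or more versus controls, with final raw signal at or below 3038400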;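 note: plate controls were neutral control wells for no effect and wells lacking membranes for full effect; tested at 10 µM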
Target sequence (Q03530 whole entry, looked up): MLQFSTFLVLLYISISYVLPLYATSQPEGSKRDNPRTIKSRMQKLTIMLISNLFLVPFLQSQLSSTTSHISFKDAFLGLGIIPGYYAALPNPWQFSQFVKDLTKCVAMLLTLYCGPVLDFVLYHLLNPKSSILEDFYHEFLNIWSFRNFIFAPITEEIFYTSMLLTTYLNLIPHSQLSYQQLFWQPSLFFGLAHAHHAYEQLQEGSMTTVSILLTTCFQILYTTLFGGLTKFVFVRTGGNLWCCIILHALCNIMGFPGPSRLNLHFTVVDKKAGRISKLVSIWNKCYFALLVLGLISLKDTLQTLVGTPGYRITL
MT1-MMP act inh RFP: further read-out of MT1-MMP act inh, marked with its call; RFP signal change, %; measured here: RFP expression control read;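 0 = vehicle wells; hits needed this value within 50% of zero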
The depositor's hits bear a star; i = inactive; . = not tested or not shown.

Results follow in this order: eIF4H FP inh	UUG fidelity	MT1-MMP act inh	MT1-MMP act inh RFP	PABP polyA inh	HIV Env fusion	CSC inhib	Rce1 inhib
CCOc1ccccc1-c1cc(C(=O)N/N=C/c2ccc3c(c2)OCO3)c2ccccc2n1
    6.6	-9.3	.	.	6.0	-123.6	.	.
CCOC(=O)c1cnn(-c2nc3c(C)cccc3s2)c1C(F)(F)F
    -2.7	3.2	-6.3	-1.5	-1.0	.	7.5	i
Nc1ccccc1C(=O)/C=C/c1ccc2c(c1)OCO2
    1.4	-19.9	1.1	-3.1	22.6	i	52.2	i
COC(C(=O)Nc1ccnn1C1CCN(Cc2ccc(C)s2)CC1)c1ccccc1 (stereo not given)
    -7.1	-8.2	0.5	-0.8	-6.0	11.0	2.5	i
NC(=NC(=O)c1ccc(OC(F)(F)F)cc1)c1ccc(C(F)(F)F)cn1
    1.5	.	1.0	1.1	6.1	6.2	3.3	i
c1ccc(Cn2cc(CNc3ccccc3)nn2)cc1
    12.8	-7.8	-1.3	4.4	-2.3	-27.5	-8.1	i
Cc1ccc(/C=C2\SC(=S)N(Cc3ccccc3)C2=O)o1
    12.9	-22.5	-5.1	78.0	8.7	-51.9	.	.
Cc1ccc(S(=O)(=O)NNC2CC(=O)N(c3ccc(Br)cc3)C2=O)cc1 (stereo not given)
    -1.5	.	4.4	3.3	2.6	7.9	-10.8	.
O=C(COc1ccc(F)cc1Cl)N(Cc1nnc(-c2ccccc2Cl)o1)C1CC1
    -5.6	2.7	2.6	1.2	-2.0	7.4	10.8	i
CC(NC(=O)Nc1cccc(Cl)c1)C(c1cccs1)N1CCCC1 (stereo not given)
    -1.0	-14.8	-2.2	-3.3	-3.4	-7.4	-1.1	i
CCC1=C(OC(=O)N(CC)CC)N2C(=O)OC(=NCC(=O)OC)[C@]2(Cc2ccccc2)[C@H]2C1=CC[C@H]1C(=O)N(C)C(=O)[C@H]12
    -2.8	-5.4	-4.3	2.2	0.2	-6.9	2.9	i
O=C(COC(=O)Cn1cnc2ccccc21)Nc1cc(S(=O)(=O)N2CCOCC2)ccc1Cl
    3.0	-3.3	2.9	6.3	-2.2	3.3	-5.4	i
CCCSc1nc2ccsc2c(=O)n1CC
    -9.3	.	-1.0	1.2	5.4	7.1	-4.3	i
CCOc1ccc(N2CC(C(=O)N3CCN(c4ccccn4)CC3)CC2=O)cc1 (stereo not given)
    .	.	5.1	-1.8	.	-5.2	-6.7	i
COc1ccc(-c2nc(NC(=O)CSCCO)sc2C)cc1
    -1.0	.	2.6	-0.5	1.1	-9.0	-11.9	i

Structural class: the compounds so far with two or more sulfur atoms (three)
Results follow in this order: eIF4H FP inh	UUG fidelity	MT1-MMP act inh	MT1-MMP act inh RFP	PABP polyA inh	HIV Env fusion	CSC inhib	Rce1 inhib
Cc1ccc(/C=C2\SC(=S)N(Cc3ccccc3)C2=O)o1
    12.9	-22.5	-5.1	78.0	8.7	-51.9	.	.
CCCSc1nc2ccsc2c(=O)n1CC
    -9.3	.	-1.0	1.2	5.4	7.1	-4.3	i
COc1ccc(-c2nc(NC(=O)CSCCO)sc2C)cc1
    -1.0	.	2.6	-0.5	1.1	-9.0	-11.9	i

Next section
Results follow in this order: eIF4H FP inh	UUG fidelity	MT1-MMP act inh	MT1-MMP act inh RFP	PABP polyA inh	HIV Env fusion	CSC inhib	Rce1 inhib
C=CCOc1c(Br)cc(/C=C2/NC(=S)N(C(C)=O)C2=O)cc1OC
    4.5	.	-5.8	-7.2	6.9	-6.2	40.2	i
CCOC(=O)C1=CC[C@H]2c3c(c4ccccc4n3C)C(=O)C1N2S(=O)(=O)c1ccc(C)cc1
    .	-5.6	1.5	-1.6	.	0.4	-10.8	.
Cc1cc(NC(=O)CSc2nnc(Cc3ccccc3)o2)no1
    8.5	-16.0	-0.6	1.3	-5.5	.	0.6	i
Cn1c(SCc2ccc(C#N)cc2)nnc1-c1cccc(Cl)c1
    0.3	-17.8	3.3	4.9	8.0	-97.2	-20.4	i
COc1ccccc1NC(=O)C1CCN(S(=O)(=O)c2ccc3c(c2)CC(C)N3C(C)=O)CC1 (stereo not given)
    .	-1.9	2.5	-0.8	.	-14.3	-18.1	i
COc1ccc(-c2csc(NC(=O)CSc3nc(SC)ns3)n2)cc1
    -7.5	.	2.3	1.6	-5.2	7.9	-6.3	i
Cc1cccc(-n2cc(CN3CCN(Cc4nccn4C)CC3)c(-c3cccc(F)c3)n2)c1
    3.6	.	0.4	-4.4	0.4	-0.3	17.3	i
COC(=O)c1c(NC(=O)CSc2nnnn2-c2ccccc2)sc2c1CCCC2
    -5.4	-11.1	0.6	-7.1	0.7	.	19.0	i
C/C(=C\c1ccccc1)C(=O)n1nnc2ccccc21
    -10.6	-12.7	-3.9	0.8	-6.6	.	-4.4	.
COc1ccc(N(C(=O)c2cnccn2)C(C(=O)NCc2ccccc2)c2ccc(O)cc2)cc1 (stereo not given)
    -2.7	3.0	-5.3	-0.9	-5.2	-12.4	2.6	i
CCCOc1ccc(N2C(=O)CC(SC(=N)N3N=C(c4ccccc4)CC3c3ccccc3)C2=O)cc1 (stereo not given)
    -4.9	.	-11.9	-12.7	5.8	0.2	-9.3	i
COc1ccc(NC(=O)N(CCO)Cc2cc3c(C)cc(C)cc3[nH]c2=O)cc1
    -7.1	1.4	9.0	3.3	-4.7	.	-14.0	i
CC(=O)Nc1ccc(S(=O)(=O)NCC(=O)Nc2ccc3c(c2)OCO3)cc1
    .	-7.5	1.1	0.0	.	26.1	0.1	.
CSc1ccccc1NC(=O)CN1C(=O)C2CC=CCC2C1=O (stereo not given)
    .	-21.8	6.0	6.1	.	-2.8	.	.
COc1ccc(-c2cc3nc(C)cc(N4CCN(C(=O)c5cccnc5)CC4)n3n2)cc1
    .	0.4	2.1	-0.3	.	-2.4	.	.

Results follow in this order: eIF4H FP inh	UUG fidelity	MT1-MMP act inh	MT1-MMP act inh RFP	PABP polyA inh	HIV Env fusion	CSC inhib	Rce1 inhib
Cc1cc(Cl)ccc1Oc1ncc(CN2CCN(c3ccccc3)CC2)s1
    -8.2	1.3	0.3	-5.1	-4.5	41.4	-4.2	i
CSc1nc2ccc(NS(=O)(=O)c3ccc(Cl)s3)cc2s1
    -8.5	-14.0	0.3	0.1	-2.2	-31.0	32.7	i
CN(C(=O)c1ccco1)c1nc(CC(=O)Nc2ccccc2)cs1
    9.7	-18.1	8.0	6.0	0.1	.	-4.4	i
CCCNC(=O)C1(C)CCCN(C(=O)COc2ccc(Cl)cc2Cl)C1 (stereo not given)
    .	0.4	4.7	-3.1	.	14.9	.	.
CCNS(=O)(=O)c1ccc(C(=O)Nc2ccccc2)cc1
    2.8	1.7	2.6	1.1	5.1	-4.6	-9.1	i
Cc1ccsc1C(=O)C1CCCN(Cc2cccn2-c2ccc(Cl)cn2)C1 (stereo not given)
    8.7	.	-3.8	-5.4	-10.2	17.6	-6.9	i
COc1cc(C)nc(N2CCCC(C(=O)NCC(C)C)C2)n1 (stereo not given)
    5.9	-3.8	-0.5	3.3	-16.1	.	-10.9	i
Cc1ccc(CS(=O)(=O)CCC(=O)NCc2ccc3c(c2)OCO3)cc1
    -0.4	.	6.2	0.8	1.8	.	-1.7	i
CCC(NS(=O)(=O)c1cccs1)c1ccc(C)cc1 (stereo not given)
    .	-12.4	-1.3	-1.2	.	5.3	-11.2	.
COc1ccc2cc(CN(Cc3ccco3)C(c3nnnn3C3CCCCC3)C(C)C)c(=O)[nH]c2c1 (stereo not given)
    6.4	1.5	-4.9	-5.4	6.4	.	-2.2	i
CC(NC(=O)c1cccs1)c1ccccc1 (stereo not given)
    .	-24.5	-2.2	4.9	.	-1.4	0.9	i
COc1ccc(C(=O)N2CCN(S(=O)(=O)N3CCOCC3)CC2)cc1OC
    0.8	9.8	0.1	2.0	-0.6	.	-13.8	i
CN(Cc1ccccc1)S(=O)(=O)c1ccc2[nH]cc(C(=O)NCC3CCCO3)c(=O)c2c1 (stereo not given)
    -0.7	-2.7	3.9	-7.4	6.1	.	3.5	.
O=C(Cn1c(O)c(/C=C2\C=Nc3ccccc32)sc1=O)Nc1ccc2c(c1)OCO2
    12.1	-15.2	11.5	1.7	4.3	.	4.2	i
Oc1ccc(Cl)cc1/C=N/c1nccs1
    -1.2	-13.7	-2.6	-1.0	1.1	-3.6	18.2	i

Gathered by group: the compounds so far with fluorine
Results follow in this order: eIF4H FP inh	UUG fidelity	MT1-MMP act inh	MT1-MMP act inh RFP	PABP polyA inh	HIV Env fusion	CSC inhib	Rce1 inhib
CCOC(=O)c1cnn(-c2nc3c(C)cccc3s2)c1C(F)(F)F
    -2.7	3.2	-6.3	-1.5	-1.0	.	7.5	i
NC(=NC(=O)c1ccc(OC(F)(F)F)cc1)c1ccc(C(F)(F)F)cn1
    1.5	.	1.0	1.1	6.1	6.2	3.3	i
O=C(COc1ccc(F)cc1Cl)N(Cc1nnc(-c2ccccc2Cl)o1)C1CC1
    -5.6	2.7	2.6	1.2	-2.0	7.4	10.8	i
Cc1cccc(-n2cc(CN3CCN(Cc4nccn4C)CC3)c(-c3cccc(F)c3)n2)c1
    3.6	.	0.4	-4.4	0.4	-0.3	17.3	i

Next part.
Results follow in this order: eIF4H FP inh	UUG fidelity	MT1-MMP act inh	MT1-MMP act inh RFP	PABP polyA inh	HIV Env fusion	CSC inhib	Rce1 inhib
Cc1ccc2[nH]c(=O)c(C(c3nnnn3C3CCCC3)N3CCCc4ccccc43)cc2c1 (stereo not given)
    1.9	-15.5	-10.2	3.0	-1.1	-102.1	-5.6	.
O=C(/C=C/c1ccco1)NCC1(c2ccccc2)CCCC1
    -2.5	.	1.8	2.1	3.8	-4.2	-3.7	i
CCCCN(C=O)c1c(CC)nc2c(OCCC3CCCCC3)cccn12
    .	-18.1	2.6	-9.7	.	37.2	.	.
Brc1cccc(C=Nc2cccc3ncccc23)c1
    .	.	0.7	3.8	.	-9.5	-14.0	i
Cc1ccc(NC(=O)Cc2nnc(SCC(=O)NC3=NCCS3)n2C)cc1
    -21.4	-18.6	-3.9	0.7	8.3	-6.5	6.6	.
COc1ccc(S(=O)(=O)n2nc(-c3ccc(Cl)cc3)cc2N)cc1
    3.3	-20.8	0.3	-11.2	-2.2	8.9	56.9	i
CC(=O)Nc1ccc(S(=O)(=O)Nc2nc3ccccc3nc2N2CCCC2)cc1
    4.4	15.1	0.1	-2.2	-1.0	.	-7.6	i
COc1cc(OC)cc(C(=O)NCC(=O)OC2CCOC2=O)c1 (stereo not given)
    -7.8	-17.9	2.7	-0.3	8.0	2.3	-13.1	i
Cc1nn(C)c(C(=O)N/N=C/c2ccncc2)c1Cl
    1.3	-14.6	1.3	1.4	-2.2	5.1	-10.1	.

Pulled by structure from the list above, 2 records:
Results follow in this order: eIF4H FP inh	UUG fidelity	MT1-MMP act inh	MT1-MMP act inh RFP	PABP polyA inh	HIV Env fusion	CSC inhib	Rce1 inhib
O=C(/C=C/c1ccco1)NCC1(c2ccccc2)CCCC1
    -2.5	.	1.8	2.1	3.8	-4.2	-3.7	i
CC(=O)Nc1ccc(S(=O)(=O)Nc2nc3ccccc3nc2N2CCCC2)cc1
    4.4	15.1	0.1	-2.2	-1.0	.	-7.6	i
